High-throughput results from PubChem.
Rango release inh: inhibition of RanGTP-driven Rango-importin beta dissociation | O95149+P62826 | Biochemical FRET Rango-importin beta, RanGTP-induced dissociation | Potency, µM (series often up to 46.1 µM), for inactives: at the top dose activity change, negative = inhibition | 340,000 tested, 0.071% active; active means falling FRET ratio curve, often poorly fitted, with flat reads before Ran was added; inconclusive means other falling curves, or compound fluorescence or quenching; inactive means flat or rising ratio curve;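 also: potency is read from the fitted curve at half-maximal effect; % of control where 0% means no effect; nearly all actives have a fitted effect of over 45% in size; -100% = wells without RanGTP and RCC1; the record marks most hits as doubtful in a second field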
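FRET read at 45 min, room temperature: inhibitors block the CFP/YFP signal rise when RanGTP (0.6 uM Ran, 2 mM GTP, 0.2 uM RCC1) frees Rango (0.1 uM) from importin beta (0.25 uM). Pre-read after 5 min compound exposure flags interference.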
miR-21 reporter: raises the signal of a miR-21 reporter; AID 2288; HeLa miR-21 FLuc reporter, luciferase, 48 h; 340,000 tested, under 10 active; Potency, µM (highest dose often 38.3 µM), for inactives: at the highest dose reporter change, positive = more light; active = well fitted rising curve with a large enough effect; inconclusive = small, poorly fitted or top-dose-only effect; inactive = no such curve, though single readings can be large or run the other way;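 also: % of control where 0% means no effect; miR-21 action dims this reporter so a rising signal means less miR-21 action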
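Luminescence from a firefly luciferase reporter carrying a miR-21 binding site downstream, stably expressed under a CMV promoter in HeLa cells that make miR-21 endogenously, reports miRNA modulation after 48 h compound exposure up to approximately 40uM final.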
Rango-impB inh: prevents formation of the Rango-importin beta complex | Rango CFP/YFP FRET sensor + importin beta, 45 min | 340,000 tested, 0.031% active | Potency, µM (titrated, usually from 92.2 µM), without a hit: at the highest dose inhibition of complex formation | AID 540263 | Q14974; active = rising FRET ratio curve, often small or poorly fitted; inconclusive = mostly compound fluorescence or quenching in the first reads; inactive = flat curves in all reads;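 also: potency is read from the fitted curve at half-maximal effect; 0% = DMSO wells and 100% = buffer wells lacking importin beta; nearly all actives have a fitted effect of over 15% in size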
Target sequence (Q14974 whole entry, looked up): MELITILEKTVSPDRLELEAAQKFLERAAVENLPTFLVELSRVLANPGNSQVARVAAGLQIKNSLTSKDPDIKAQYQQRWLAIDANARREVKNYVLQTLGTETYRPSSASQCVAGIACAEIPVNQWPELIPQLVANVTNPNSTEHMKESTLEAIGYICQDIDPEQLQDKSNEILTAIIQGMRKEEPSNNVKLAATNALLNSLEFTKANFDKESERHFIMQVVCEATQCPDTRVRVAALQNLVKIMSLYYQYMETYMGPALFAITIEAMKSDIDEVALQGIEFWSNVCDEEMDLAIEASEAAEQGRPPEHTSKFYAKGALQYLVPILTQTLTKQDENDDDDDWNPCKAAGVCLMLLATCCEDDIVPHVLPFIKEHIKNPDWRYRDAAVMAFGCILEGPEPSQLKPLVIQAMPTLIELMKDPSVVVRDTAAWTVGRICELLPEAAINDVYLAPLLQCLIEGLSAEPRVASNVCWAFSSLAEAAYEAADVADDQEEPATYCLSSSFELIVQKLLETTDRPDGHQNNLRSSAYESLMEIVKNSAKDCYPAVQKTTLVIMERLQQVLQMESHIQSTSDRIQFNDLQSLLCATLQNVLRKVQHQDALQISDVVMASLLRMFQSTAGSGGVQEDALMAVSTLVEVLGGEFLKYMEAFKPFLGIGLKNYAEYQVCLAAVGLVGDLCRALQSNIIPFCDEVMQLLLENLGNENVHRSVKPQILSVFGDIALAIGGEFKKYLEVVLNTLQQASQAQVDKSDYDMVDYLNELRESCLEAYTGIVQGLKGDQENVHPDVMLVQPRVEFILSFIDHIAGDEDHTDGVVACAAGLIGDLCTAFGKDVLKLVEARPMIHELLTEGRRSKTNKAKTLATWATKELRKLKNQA
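Inhibition scored from the CFP 486 nm/YFP 530 nm FRET ratio 45 min after adding 0.125 microM importin beta to 50 nM Rango biosensor preincubated 5 min with compound (room temperature, PBS with DTT, Tween-20, BSA). No-importin wells as positive control.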
GLA inh pH 4.5: inhibitors of human alpha-galactosidase A at pH 4.5. AID 1467. 230,000 tested, under 10 active. purified enzyme, 4-MU-alpha-Gal fluorescence, pH 4.5. activity change, negative = inhibition, % at 105 µM; inconclusive = small, poorly fitted or top-dose-only inhibition, or a rising curve; inactive = flat fitted curve, though single readings scatter; no compound was filed as active;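 also: 0% = full activity with enzyme and -100% = basal without enzyme; dose as in the result columns while the protocol names 77 µM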
* hit, by the source's call; ? = inconclusive; nt = no result given; & = joins results of further samples; [ ] = remark or other dose. Some of the compounds tested. The share of hits here may be higher or lower than overall.

SMILES	Rango release inh	miR-21 reporter	Rango-impB inh	GLA inh pH 4.5
CC1CCC(C(C)C)C(OCC(O)C[N+]2(C)CCCCC2)C1 (centres undefined)	-11%	5%	3.9%	-4
CCC(=O)N1CCN(c2ccc(NC(=S)NC(=O)COc3ccccc3)cc2)CC1	6%	-1%	-0.9%	4
Nc1nc(SCC(=O)NCCOCCO)nc2sc3c(c12)CCCC3	0%	-16%	3.3%	2
c1ccc(-c2nnnn2CCOCCn2nnnc2-c2ccccc2)cc1	8%	-1%	-1.2%	-5
C#CCOCCOCCOCCNc1nc(N2CCN(C(=O)[C@H](Cc3ccc(O)cc3)n3cc([C@@H](N)C(C)CC)nn3)CC2)nc(N2CCN(C(=O)[C@H](CCCCN)n3cc([C@@H](N)CC(C)C)nn3)CC2)n1 (some centres undefined)	nt	1%	nt	5
COc1cccc(CN2CCN(Cc3cc(OC)c(OC)cc3[N+](=O)[O-])CC2)c1	-5%	-7%	-1.8%	-4
O=C(Nc1ccnn1C1CCN(CCCC2CCCC2)CC1)c1ccccc1Cl	-9%	6%	0.3%	nt
CCOC(=O)CSc1ccc(S(=O)(=O)N2CCCC2)cc1[N+](=O)[O-]	9%	0%	2.9%	4[21.1 µM]
COc1cccc(-c2nnc(NC(=O)c3ccccc3Br)o2)c1	-12%	-38%	5.6%	-16
OCCNc1nc(Nc2ccccc2)nc2ccccc12	-13%	0%	0.4%	-1
O=c1c2ccccc2c(/C=N/c2nnc(Cc3ccccc3)s2)c(O)n1-c1ccc(Cl)cn1	?	-4%	?	-17
CC(C)c1ccc(COc2ccc(C(=O)N3CCOCC3)cc2)cc1	0%	-4%	-0.3%	-13
CC(=O)c1ccc(NC(=O)C2C3C=CC(O3)C2C(=O)O)cc1 (centres undefined)	1%	-6%	5.0%	nt
CCN(CC)c1ccc(S(=O)(=O)Nc2cc(Cl)ccc2Cl)cc1NC(=S)NC(=O)C1CCCC1	-4%	1%	2.0%	-7
CCN(CC)c1ccc2cc(S(=O)(=O)c3ccc(C)cc3)c(=O)oc2c1	?	0%	?	-5
COC(=O)c1ccc(NC(=O)NS(=O)(=O)c2ccc(C)cc2)cc1	12%	-16%	-1.1%	2
CCOC(=O)C1=C(C)NC(=O)NC1c1ccc(OCCO)c(OC)c1 (centres undefined)	4%	-2%	0.5%	-3
CCOC(=O)c1c(NC(=O)CCN2C(=O)c3cccc([N+](=O)[O-])c3C2=O)sc(C(=O)OC(C)C)c1C	-7%	0%	-0.7%	-2
CCOc1ccc(N(C)S(=O)(=O)c2ccc(C)c(C(=O)NCc3ccccc3OC)c2)cc1	-2%	nt	1.2%	nt
COCC(C)N=C1NN=C(c2c[nH]c3ccccc23)CS1 (centres undefined)	-1%	-66%	5.1%	6
Cc1nc(N2CCc3ccccc3C2)[nH]c(=O)c1CCC(C)C	4%	-1%	1.8%	-1
O=C(NC1CCCC1)C1CCCN1S(=O)(=O)c1cccc2cccnc12 (centres undefined)	-2%	-12%	-4.8%	-10
COc1ccc(C(=O)COC(=O)C2COc3ccccc3O2)cc1F (centres undefined)	21%	nt	1.0%	nt
Cc1ccc2nc(N3CCN(C(=O)CCCC(=O)O)CC3)nc(-c3ccccc3)c2c1	?	-12%	?	nt
CN(C)c1cccc(C(=O)N/N=C/c2ccsc2)c1	-3%	-52%	-1.7%	-9
More records follow.
SMILES	Rango release inh	miR-21 reporter	Rango-impB inh	GLA inh pH 4.5
O=C(O)CCCCC1CCSS1 (centres undefined)	1%	-6%	-4.2%	-2&-15&0
Nc1c(C(=O)OCC2CCCO2)c2nc3ccccc3nc2n1C1CCCCC1 (centres undefined)	?	0%	3.1%	11
CN(C)c1ccc2nc3c(=O)[nH]c(=O)nc-3n(CC(O)C(O)C(O)CO)c2c1 (centres undefined)	-12%	12%	9.4%	nt
CN(C)S(=O)(=O)N1CCC(CO)(CCc2ccccc2)CC1	1%	0%	-0.3%	0
COc1ccc(S(=O)(=O)N(C)C[C@H]2Oc3c(NC(=O)Nc4ccccc4)cccc3C(=O)N([C@H](C)CO)C[C@@H]2C)cc1	-4%	nt	-0.3%	nt
Cc1ccc(/C=N/NC(=O)c2ccccn2)s1	-1%	-20%	5.3%	-14
CC(CSc1nnnn1-c1ccccc1)Cn1c(N2CCCC2)nc2c1c(=O)[nH]c(=O)n2C (centres undefined)	9%	-24%	0.8%	0
CSC1=NCCN1S(=O)(=O)c1ccccc1	3%	-2%	2.9%	2
CC(C)NC(=O)c1ccc(N(Cc2ccc(Cl)cc2)S(C)(=O)=O)cc1	1%	3%	-1.5%	nt
CC(=O)N(Cc1ccccc1)c1ncc2c(n1)c(=O)c(C#N)c1ccccn12	?	1%	?	-3
O=C(O)C1CSC(c2ccc3c(c2)OCO3)N1 (centres undefined)	-1%	-27%	-0.7%	4
CC(SC(C)C(=O)NN=Cc1cccc(F)c1)C(=O)NN=Cc1cccc(F)c1 (centres undefined)	11%	nt	0.7%	nt
Cc1ccc(-c2cn(-c3ccccc3)c(SCC(N)=O)n2)cc1C	0%	-54%	5.7%	-14
Cn1c(SCC(=O)Nc2cc(C(C)(C)C)nn2-c2ccccc2)nc2ccccc21	-19%	-4%	-4.2%	-1
CC(Oc1cc2oc(=O)c3c(c2cc1Cl)CCC3)C(=O)NCc1ccccn1 (centres undefined)	4%	-6%	0.6%	nt
S=c1[nH]nc(-c2ccc(Cl)cc2)n1Cc1ccccc1	-20%	-2%	-4.9%	-2
O=C(Nc1cc(Cl)ccc1N1CCOCC1)c1cnccn1	5%	-8%	-0.2%	2
CC(=O)Nc1ccc(S(=O)(=O)Oc2ccc(/C=N/NC(=O)c3ccc(Cl)cc3)cc2)cc1	6%	-2%	3.7%	-7
CC(CC(=O)N(CCC1=CCCCC1)c1c(N)n(Cc2ccccc2)c(=O)[nH]c1=O)c1ccccc1 (centres undefined)	-15%	nt	2.5%	nt
CC(C)(C)NC(=O)CN(C(=O)C1CSC(=O)C1)c1ccc2c(c1)OCCO2 (centres undefined)	-24%	-11%	-1.8%	-7
CCN(CC)CCSc1nc2ccccc2n1Cc1ccccc1	2%	5%	-0.8%	nt
COc1ccc(OCC(=O)Nc2ccccc2C(=O)N2CCCC2)cc1	1%	-3%	1.4%	-8
O=C(NCC1(c2ccccc2)CCCC1)C1(c2ccccc2)CCCC1	-10%	1%	0.0%	0
C=CC[C@H]1Cc2c(cccc2[N+](=O)[O-])[C@H](CC=C)N1	10%	-4%	-1.0%	-1
Cn1[nH]c(=O)c2ccccc2c1=O	23%	-1%	-0.5%	-4

Sorted by molecular weight (rising): 13 of the compounds above
SMILES	Rango release inh	miR-21 reporter	Rango-impB inh	GLA inh pH 4.5
CSC1=NCCN1S(=O)(=O)c1ccccc1	3%	-2%	2.9%	2
Cc1nc(N2CCc3ccccc3C2)[nH]c(=O)c1CCC(C)C	4%	-1%	1.8%	-1
CC1CCC(C(C)C)C(OCC(O)C[N+]2(C)CCCCC2)C1 (centres undefined)	-11%	5%	3.9%	-4
O=C(Nc1cc(Cl)ccc1N1CCOCC1)c1cnccn1	5%	-8%	-0.2%	2
Cc1ccc(-c2cn(-c3ccccc3)c(SCC(N)=O)n2)cc1C	0%	-54%	5.7%	-14
c1ccc(-c2nnnn2CCOCCn2nnnc2-c2ccccc2)cc1	8%	-1%	-1.2%	-5
Nc1nc(SCC(=O)NCCOCCO)nc2sc3c(c12)CCCC3	0%	-16%	3.3%	2
Nc1c(C(=O)OCC2CCCO2)c2nc3ccccc3nc2n1C1CCCCC1 (centres undefined)	?	0%	3.1%	11
CC(Oc1cc2oc(=O)c3c(c2cc1Cl)CCC3)C(=O)NCc1ccccn1 (centres undefined)	4%	-6%	0.6%	nt
COc1cccc(CN2CCN(Cc3cc(OC)c(OC)cc3[N+](=O)[O-])CC2)c1	-5%	-7%	-1.8%	-4
CC(SC(C)C(=O)NN=Cc1cccc(F)c1)C(=O)NN=Cc1cccc(F)c1 (centres undefined)	11%	nt	0.7%	nt
O=c1c2ccccc2c(/C=N/c2nnc(Cc3ccccc3)s2)c(O)n1-c1ccc(Cl)cn1	?	-4%	?	-17
C#CCOCCOCCOCCNc1nc(N2CCN(C(=O)[C@H](Cc3ccc(O)cc3)n3cc([C@@H](N)C(C)CC)nn3)CC2)nc(N2CCN(C(=O)[C@H](CCCCN)n3cc([C@@H](N)CC(C)C)nn3)CC2)n1 (some centres undefined)	nt	1%	nt	5

(more compounds)
SMILES	Rango release inh	miR-21 reporter	Rango-impB inh	GLA inh pH 4.5
O=C(Cc1cccs1)N/N=C\c1ccc([N+](=O)[O-])s1	-17%	20%	0.3%	-10[21.1 µM]
CCC(C)Cn1c(O)cc2nn(-c3nc4ccccc4s3)c(=O)c-2c1C (centres undefined)	-21%	-6%	-4.5%	2
O=C1CC(c2ccccc2)N1c1ccccc1 (centres undefined)	-20%	-3%	-1.7%	9
C[C@H](C(=O)NCc1ccccc1)C(=O)c1ccccc1	3%	-5%	-0.2%	nt
CCCCNc1c(-c2ccc(SC3CCCCC3)cc2)nc2cnccn12	?	nt	?	nt
CCOc1ccc(C(=O)NCC(c2cccs2)N2CCOCC2)cc1 (centres undefined)	-1%	nt	2.4%	nt
CC(=O)N1CCN(S(=O)(=O)c2ccc3c(c2)OCCO3)CC1	?	nt	-0.3%	nt
CC1CCCN(C(=O)c2ccc(NC(=O)CC3SC(N4CCCC4)=NC3=O)cc2)C1 (centres undefined)	-16%	nt	-1.3%	nt
C=CCOC(=O)Nc1snnc1C	-5%	-3%	1.1%	-6
Cn1c(=O)c(=O)n(C)c2cc(S(=O)(=O)NCCOc3ccccc3Cl)ccc21	-14%	3%	3.7%	7[21.1 µM]
CCOc1ccc(N(CC(=O)NCc2cccnc2)S(=O)(=O)c2ccc(F)cc2)cc1	0%	0%	-1.9%	nt
COc1ccc(C(=O)CN2C(=O)NC(C)(c3ccccc3)C2=O)cc1OC (centres undefined)	4%	-5%	?	4
CCn1cc(CNC(=O)c2c(-c3c(Cl)cccc3Cl)noc2C)c(C)n1	-15%	-4%	0.0%	-2
Nn1c(SCC(=O)Nc2ccc(F)cc2F)nnc1-c1cccnc1	0%	-32%	-1.0%	-6
O=S1(=O)CCN2C=C(Cl)C=C(Cl)C2=N1	-10%	1%	-0.3%	?
CCCCCn1c(CN2CC(C)OC(C)C2)nc2c1c(=O)n(C)c(=O)n2C (centres undefined)	-12%	-2%	-5.7%	2
Cc1c(C(=O)OCC2CCCO2)[nH]c2c1C(=O)CC(c1ccc(N(C)C)cc1)C2 (centres undefined)	17%	4%	12%	1
Cc1ccc(-n2nc3c(c2NC(=O)C2CC2)CS(=O)(=O)C3)cc1C	-7%	-2%	0.0%	nt
O=c1[nH]c(N/N=C\c2ccc3c(c2)OCO3)nc2ccccc12	0%	-26%	?	1
Cc1cccc(CS(=O)(=O)c2ncc(CO)n2C)c1	16%	-3%	3.5%	nt
Cc1c(C(=O)NC(C)c2ccc(-n3ccnc3)cc2)cccc1[N+](=O)[O-] (centres undefined)	-9%	-1%	0.2%	nt
COc1ccc(C(=O)NCCc2nnc(SCC(=O)Nc3ccc(Br)cc3)n2C)cc1	0%	-13%	2.5%	-6
CCc1ccccc1OCCCCCNCCO	0%	-4%	-0.5%	7
Cc1c(C(=O)N2CCN(c3ccc(F)cc3)CC2)oc2c1C(=O)CCC2	1%	-1%	-0.5%	nt
O=S(=O)(NCCc1cn2ccccc2n1)c1ccc2c(c1)CCCC2	-11%	-9%	3.2%	1
Additional entries:
SMILES	Rango release inh	miR-21 reporter	Rango-impB inh	GLA inh pH 4.5
CC(=O)C(Cc1ccccc1)NC(=O)COC(=O)CCN1C(=O)C2CC=CCC2C1=O (centres undefined)	7%	nt	0.9%	nt
Cn1ncc2c(Nc3ccc(-c4ccccc4)cc3)ncnc21	29%	-11%	0.2%	3
O=C(CN1C(=O)c2ccccc2C1=O)N1CCN(S(=O)(=O)c2ccccc2)CC1	-1%	-1%	2.2%	nt
Cn1c(SCCc2ccc([N+](=O)[O-])cc2)nccc1=O	-6%	nt	2.7%	nt
Cc1ccc(-c2nnc(NC(=O)c3ccc([N+](=O)[O-])o3)o2)c(C)c1	-4%	nt	-0.9%	nt
O=C(CSc1ncccn1)NCc1ccc(F)cc1	-6%	-26%	-0.1%	1
Cc1[nH]c2ccccc2c1C(=O)C(=O)NCc1ccco1	6%	-12%	-4.7%	-2
